Assay outcomes (PubChem BioAssay)
miR-21 FLuc: miR-21 reporter, rising signal | Potency, µM (highest dose often 38.3 µM), for inactives: at the highest dose reporter change, positive = more light | 340,000 tested, under 10 active | HeLa miR-21 FLuc reporter, luciferase, 48 h; active = well fitted rising curve with a large enough effect; inconclusive = small, poorly fitted or top-dose-only effect; inactive = no such curve, though single readings can be large or run the other way;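 note: % of control where 0% means no effect; miR-21 action dims this reporter so a rising signal means less miR-21 action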
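HeLa miR-21-FLuc reporter line, endogenous miR-21; 2000 cells/well in DMEM/10% FBS; compound titration up to ~40uM final, 48 h, 37 degree Celsius; luciferase detection reagent, 15 min lysis, CCD luminescence.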
GLA inh pH 4.5: blocks human alpha-galactosidase A at pH 4.5 | 230,000 tested, under 10 active | activity change, negative = inhibition, % at 105 µM | purified enzyme, 4-MU-alpha-Gal fluorescence, pH 4.5 | P06280; inconclusive = small, poorly fitted or top-dose-only inhibition, or a rising curve; inactive = flat fitted curve, though single readings scatter; no compound was filed as active;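 note: 0% = full activity with enzyme and -100% = basal without enzyme; dose as in the result columns while the protocol names 77 µM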
Target sequence (P06280 whole entry, looked up): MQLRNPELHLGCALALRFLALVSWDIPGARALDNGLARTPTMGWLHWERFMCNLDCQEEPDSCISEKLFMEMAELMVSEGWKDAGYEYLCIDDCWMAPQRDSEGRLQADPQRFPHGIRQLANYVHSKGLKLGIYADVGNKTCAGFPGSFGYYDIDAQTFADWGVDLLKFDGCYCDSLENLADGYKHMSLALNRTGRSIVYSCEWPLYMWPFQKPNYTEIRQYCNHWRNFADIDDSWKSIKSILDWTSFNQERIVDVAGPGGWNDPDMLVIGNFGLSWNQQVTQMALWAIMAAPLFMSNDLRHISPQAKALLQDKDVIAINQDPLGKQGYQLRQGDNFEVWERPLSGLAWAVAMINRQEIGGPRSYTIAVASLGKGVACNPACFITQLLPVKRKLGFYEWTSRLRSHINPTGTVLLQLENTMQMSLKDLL
Rango dissoc inh: inhibitors of RanGTP-induced Rango-importin beta complex dissociation. Biochemical FRET Rango-importin beta, RanGTP-induced dissociation. O95149+P62826. 0.071% of 340,000 active. Potency, µM (series often up to 46.1 µM), for inactives: at the highest dose activity change, negative = inhibition. AID 540253; active means falling FRET ratio curve, often poorly fitted, with flat reads before Ran was added; inconclusive means other falling curves, or compound fluorescence or quenching; inactive means flat or rising ratio curve;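 note: potency is the fitted concentration of half-maximal effect; % of control where 0% means no effect; nearly all actives have a fitted effect of over 45% in size; -100% = wells without RanGTP and RCC1; the record marks most hits as doubtful in a second field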
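Recombinant Rango FRET biosensor (EYFP–snurportin 1 IBB–cerulean CFP10) at 0.1 uM premixed with 0.25 uM importin beta in PBS, 1 mM DTT, 0.02% Tween-20, 0.1% BSA. Compound added 5 min; RanGTP-RCC1 (0.6 uM Ran, 2 mM GTP, 0.2 uM RCC1) then triggers release, read at 45 min.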
Rango complex inh: prevents formation of the Rango-importin beta complex; Rango CFP/YFP FRET sensor + importin beta, 45 min; Q14974; Potency, µM (top dose mostly 92.2 µM), for the others: at the top dose inhibition of complex formation; 0.031% of 340,000 active; active = rising FRET ratio curve, often small or poorly fitted; inconclusive = mostly compound fluorescence or quenching in the first reads; inactive = flat curves in all reads;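 note: potency is the fitted concentration of half-maximal effect; 0% = DMSO wells and 100% = buffer wells lacking importin beta; nearly all actives have a fitted effect of over 15% in size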
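Inhibition scored from the CFP 486 nm/YFP 530 nm FRET ratio 45 min after adding 0.125 microM importin beta to 50 nM Rango biosensor preincubated 5 min with compound (room temperature, PBS with DTT, Tween-20, BSA). No-importin wells as positive control.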
The depositor's hits bear a star; ? = inconclusive; nt = no result given; [ ] = dose if it differs, or a comment.

The first 13 records as a preview:
(1) COc1ccc([C@H]2CC(=O)C=C(c3ccc(-c4ccccc4)c(F)c3)C2)cc1OC
(2) CCCCSc1nnc(CSc2nc3nc(C)cc(C)n3n2)o1
(3) CCCCCCN1CC(C(=O)OCC)C(=O)C1=O (centres undefined)
(4) N#CC1=C(N)C(C#N)(C#N)C(c2cccnc2)C2CN(C(=O)OCc3ccccc3)CC=C12 (centres undefined)
(5) Nc1nc(SCC(=O)c2c(N)n(C3CC3)c(=O)[nH]c2=O)n[nH]1
(6) CCOC(=O)N1CCN(C(=O)c2cc3cc(OC)c(OC)cc3[nH]2)CC1
(7) O=C(NC1CCCCCC1)c1ccc(CS(=O)(=O)Cc2ccc(F)cc2)o1
(8) O=C(O)Cc1c(O)ccc2ccccc12

| screen / no. | 1 | 2 | 3 | 4 | 5 | 6 | 7 | 8 |
| --- | --- | --- | --- | --- | --- | --- | --- | --- |
| miR-21 FLuc | nt | 3.4% | -2.3% | 7.2% | nt | -3.6% | -33.6% | 0.7% |
| GLA inh pH 4.5 | nt | 4.4 | 2.4 | 4.2 | nt | nt | nt | 12.3 |
| Rango dissoc inh | 0.8% | 9.8% | -7.0% | ? | 2.3% | -4.4% | 6.4% | 17.6% |
| Rango complex inh | -3.9% | 0.8% | -3.4% | ? | 1.4% | -4.5% | 0.8% | -0.3% |

(9) CC1CC(C)(C)NC(=S)N1CCC(=O)N1CCc2ccccc21 (centres undefined)
(10) Cc1ccc(CNC(=O)CSc2n[nH]c(N)n2)cc1
(11) Cc1nc(C)c(C(=O)O)s1
(12) COc1cc(CNCc2cccs2)ccc1OCc1cccs1
(13) O=C(Nc1ccc(S(=O)(=O)NCC2CCCO2)cc1)c1ccc(F)cc1 (centres undefined)

| screen / no. | 9 | 10 | 11 | 12 | 13 |
| --- | --- | --- | --- | --- | --- |
| miR-21 FLuc | 1.4% | -5.2% | 0.5% | -19.1% | 14.2% |
| GLA inh pH 4.5 | -12.6 | 0.4 | -3.8 | -0.3 | nt |
| Rango dissoc inh | 24.2% | 3.3% | -5.1% | 2.4% | -4.1% |
| Rango complex inh | -1.2% | -1.8% | 2.6% | 0.4% | -2.5% |

All compounds of this part (from the top)
(1) COc1ccc([C@H]2CC(=O)C=C(c3ccc(-c4ccccc4)c(F)c3)C2)cc1OC
(2) CCCCSc1nnc(CSc2nc3nc(C)cc(C)n3n2)o1
(3) CCCCCCN1CC(C(=O)OCC)C(=O)C1=O (centres undefined)
(4) N#CC1=C(N)C(C#N)(C#N)C(c2cccnc2)C2CN(C(=O)OCc3ccccc3)CC=C12 (centres undefined)
(5) Nc1nc(SCC(=O)c2c(N)n(C3CC3)c(=O)[nH]c2=O)n[nH]1
(6) CCOC(=O)N1CCN(C(=O)c2cc3cc(OC)c(OC)cc3[nH]2)CC1

| screen / no. | 1 | 2 | 3 | 4 | 5 | 6 |
| --- | --- | --- | --- | --- | --- | --- |
| miR-21 FLuc | nt | 3.4% | -2.3% | 7.2% | nt | -3.6% |
| GLA inh pH 4.5 | nt | 4.4 | 2.4 | 4.2 | nt | nt |
| Rango dissoc inh | 0.8% | 9.8% | -7.0% | ? | 2.3% | -4.4% |
| Rango complex inh | -3.9% | 0.8% | -3.4% | ? | 1.4% | -4.5% |

Profiles from above. Order of values: miR-21 FLuc	GLA inh pH 4.5	Rango dissoc inh	Rango complex inh
COc1ccc([C@H]2CC(=O)C=C(c3ccc(-c4ccccc4)c(F)c3)C2)cc1OC reads nt	nt	0.8%	-3.9%
CCCCSc1nnc(CSc2nc3nc(C)cc(C)n3n2)o1 reads 3.4%	4.4	9.8%	0.8%

Continuation:
(7) O=C(NC1CCCCCC1)c1ccc(CS(=O)(=O)Cc2ccc(F)cc2)o1
(8) O=C(O)Cc1c(O)ccc2ccccc12
(9) CC1CC(C)(C)NC(=S)N1CCC(=O)N1CCc2ccccc21 (centres undefined)
(10) Cc1ccc(CNC(=O)CSc2n[nH]c(N)n2)cc1
(11) Cc1nc(C)c(C(=O)O)s1
(12) COc1cc(CNCc2cccs2)ccc1OCc1cccs1

| screen / no. | 7 | 8 | 9 | 10 | 11 | 12 |
| --- | --- | --- | --- | --- | --- | --- |
| miR-21 FLuc | -33.6% | 0.7% | 1.4% | -5.2% | 0.5% | -19.1% |
| GLA inh pH 4.5 | nt | 12.3 | -12.6 | 0.4 | -3.8 | -0.3 |
| Rango dissoc inh | 6.4% | 17.6% | 24.2% | 3.3% | -5.1% | 2.4% |
| Rango complex inh | 0.8% | -0.3% | -1.2% | -1.8% | 2.6% | 0.4% |

(13) O=C(Nc1ccc(S(=O)(=O)NCC2CCCO2)cc1)c1ccc(F)cc1 (centres undefined)
(14) CCCS(=O)(=O)N1CCC(C(=O)NC2CCC(C)CC2)CC1 (centres undefined)
(15) CC1CCN(C(=S)NC(=O)c2ccco2)CC1
(16) CCCc1cc(-c2nc(-c3ccc(Cl)cc3)cs2)ccn1
(17) COc1ccc(C(=O)Nc2ccccc2C)cc1S(=O)(=O)N1CCOCC1
(18) Cc1nc2c(ccc3nc(NC(=O)C(c4ccccc4)c4ccccc4)sc32)s1

| screen / no. | 13 | 14 | 15 | 16 | 17 | 18 |
| --- | --- | --- | --- | --- | --- | --- |
| miR-21 FLuc | 14.2% | -28.3% | -4.4% | -26.3% | -0.7% | -0.1% |
| GLA inh pH 4.5 | nt | -0.9 | nt | -10.9 | nt | -5.5 |
| Rango dissoc inh | -4.1% | 27.2% | -1.9% | 3.7% | 16.1% | -2.3% |
| Rango complex inh | -2.5% | -3.7% | 2.4% | -0.3% | 0.9% | -2.8% |

(19) COc1ccccc1CC(=O)NC1CCCc2ccccc21 (centres undefined)
(20) O=C(COc1cccc(C(F)(F)F)c1)Nc1cccnc1
(21) Cc1cc(C(=O)COc2ccc(C#N)cc2)c(C)n1-c1ccc2c(c1)OCO2
(22) O=C(NNS(=O)(=O)c1ccc(Br)cc1)c1sccc1-n1cccc1
(23) COC(=O)c1ccc(C(c2c(C)[nH][nH]c2=O)c2c(C)[nH][nH]c2=O)cc1
(24) CCNC(=O)CN(c1ccc(C)cc1)S(=O)(=O)c1ccc(SC)cc1

| screen / no. | 19 | 20 | 21 | 22 | 23 | 24 |
| --- | --- | --- | --- | --- | --- | --- |
| miR-21 FLuc | -6.0% | -0.3% | -6.7% | -2.9% | 5.5% | -3.0% |
| GLA inh pH 4.5 | 2.3 | nt | -0.3 | -15.9 | nt | -0.5 |
| Rango dissoc inh | -14.8% | 24.0% | 27.4% | -8.5% | -1.2% | 34.3% |
| Rango complex inh | 0.7% | 0.1% | -0.5% | ? | 0.5% | -3.9% |

(25) CCOc1ccc(C(=O)Nc2ccc(S(=O)(=O)N3CCN(C)CC3)cc2)cc1
(26) Cc1ccccc1CC(=O)Nc1ccon1
(27) Cc1ccc(N2CC(C(=O)N3CCC(C(=O)Nc4cccc(Br)c4)CC3)CC2=O)cc1 (centres undefined)
(28) NC(=O)C1CCN(C(=O)CCSCc2ccc(Cl)c(Cl)c2)CC1
(29) CCCCCCCCn1c(N2CCN(c3cccc(Cl)c3)CC2)nc2c1c(=O)[nH]c(=O)n2C
(30) Cc1oc2ccc(NS(=O)(=O)c3cccc4cccnc34)cc2c1C(=O)OC(C)C

| screen / no. | 25 | 26 | 27 | 28 | 29 | 30 |
| --- | --- | --- | --- | --- | --- | --- |
| miR-21 FLuc | 8.2% | 0.5% | 8.4% | -5.4% | 6.0% | -4.9% |
| GLA inh pH 4.5 | nt | nt | nt | nt | -4.1 | -18.7 |
| Rango dissoc inh | 4.8% | -0.4% | -2.4% | 0.1% | -12.3% | 24.6% |
| Rango complex inh | 8.1% | 1.8% | -2.7% | -0.3% | 2.5% | 3.8% |

(31) C(=N\n1cnnc1)/c1ccc(OCc2ccccc2)cc1
(32) Cc1cc(C(=O)N2CCCC(Nc3ccc(C(C)C)cc3)C2)nn1C (centres undefined)
(33) Cc1nc(CCNC(=O)C2CCC(=O)N(Cc3cccc(F)c3)C2)sc1C (centres undefined)
(34) Cc1ccc2ncnc(Oc3ncccc3[N+](=O)[O-])c2c1
(35) CCN(CC)C(=O)CNC(=S)N(CCCN1CCOCC1)Cc1cccs1
(36) CCOC(=O)CNC(=O)CNC(=O)c1nn(-c2ccc(OC)c(Cl)c2)c(=O)c2ccccc12

| screen / no. | 31 | 32 | 33 | 34 | 35 | 36 |
| --- | --- | --- | --- | --- | --- | --- |
| miR-21 FLuc | -49.2% | 2.7% | -3.3% | -20.1% | -10.7% | 0.7% |
| GLA inh pH 4.5 | -0.1 | nt | nt | -2.9 | 1.4 | 3.5[21.1 µM] |
| Rango dissoc inh | 16.4% | 15.7% | 5.9% | 9.9% | 13.1% | -7.4% |
| Rango complex inh | -1.3% | -3.2% | 7.1% | ? | 3.3% | 0.6% |

(37) COc1ccc(CC(=O)Nc2cccc(-c3ccc4nncn4n3)c2)cc1OC
(38) NC(=O)CN1CCN(c2nc(-c3ccc(F)cc3)cs2)CC1
(39) O=C1c2ccccc2-c2nnc(-c3ccc(F)cc3)cc21
(40) O=S(=O)(c1ccccc1Cl)N1CCC(O)(c2cccnc2)CC1
(41) COc1ccc(OC(=O)CCc2c[nH]c3ccccc23)cc1
(42) COc1ccccc1C1C(C#N)=C(N)Oc2cc(C)n(Cc3ccccn3)c(=O)c21 (centres undefined)

| screen / no. | 37 | 38 | 39 | 40 | 41 | 42 |
| --- | --- | --- | --- | --- | --- | --- |
| miR-21 FLuc | 26.8% | -30.9% | -34.6% | -4.9% | -3.7% | -2.3% |
| GLA inh pH 4.5 | 10.5 | -24.6 | -0.5 | 1.2 | 1.9 | 1.3 |
| Rango dissoc inh | -1.1% | -3.9% | 15.0% | -9.3% | -13.4% | ? |
| Rango complex inh | 0.1% | 0.7% | -0.1% | -0.8% | -2.9% | ? |

(43) CCN(CC(=O)Nc1ccc(NC(C)=O)cc1)CC(=O)Nc1ccc(Cl)c(Cl)c1
(44) O=C(Nc1cccc(Cl)c1)Nn1cnnc1
(45) O=C(CC(=O)N/N=C/c1ccc(F)cc1)N/N=C/c1ccc(F)cc1
(46) COc1ccc(CCN=C(NS(=O)(=O)c2ccc(Cl)cc2)c2ccccc2)cc1
(47) CCC(C)NCCOCCOc1ccc(F)cc1 (centres undefined)
(48) CCOc1ccc(NS(=O)(=O)c2ccc(C(=O)N(C)CC(=O)Nc3cccc(OC)c3)cc2)cc1

| screen / no. | 43 | 44 | 45 | 46 | 47 | 48 |
| --- | --- | --- | --- | --- | --- | --- |
| miR-21 FLuc | -9.3% | -2.4% | 7.5% | -4.0% | -2.1% | nt |
| GLA inh pH 4.5 | nt | -4.7 | -8.6 | -6.7 | 0.0 | nt |
| Rango dissoc inh | 19.2% | 2.2% | 0.2% | -3.7% | 14.1% | 4.8% |
| Rango complex inh | 0.2% | 4.4% | -0.8% | 4.9% | -0.3% | -2.6% |

(49) COc1ccc(-n2nc(C(=O)NCC(=O)NCCN(C)C)c3ccccc3c2=O)c(OC)c1
(50) CN1CCN(C(=O)Nc2ccc3c(c2)N(C)C(=O)c2ccccc2S3)CC1
(51) Cc1ccc2c(C)c(C(=O)N(C)Cc3nccn3C)oc2c1C
(52) CCc1ccc(-c2nc(CS(=O)CC(=O)NCCc3ccccc3)c(C)o2)cc1 (centres undefined)

| screen / no. | 49 | 50 | 51 | 52 |
| --- | --- | --- | --- | --- |
| miR-21 FLuc | -0.7% | -5.6% | -17.8% | -35.8% |
| GLA inh pH 4.5 | nt | -6.9 | nt | nt |
| Rango dissoc inh | -14.3% | -23.2% | -7.5% | -6.5% |
| Rango complex inh | 3.5% | -0.5% | -3.6% | 0.1% |

The list is partial. The share of hits here may be higher or lower than overall.
